Screens (PubChem)
HSD17B inh: inhibitors of human HSD17B10 dehydrogenase; recombinant HSD17B10, NADH fluorescence kinetic; many of its hits are not listed in these tables; 75,000 tested, 7.6% active; AID 893; Potency, µM (doses to about 57.1 µM), without a hit: at the highest dose activity change, negative = inhibition, most hits filed as inhibitors; Q99714; active means well fitted inhibition curve with a large enough effect; inconclusive means small, poorly fitted or top-dose-only effect; inactive means no such curve, though single readings can be large or run the other way;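 further: the protocol describes HADH2 (HSD17B10) and not the HSD17B4 of the title; nearly all actives have a fitted effect of over 70% in size; most hits overshoot -100% by far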
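Activity followed as NADH fluorescence increase (ex 360, em 450 nm) every 30 seconds for 4 min, using final 90 uM beta-hydroxybutyryl CoA and 1 mM NAD+. Recombinant His-tagged enzyme, 20 nM, pH 9.0 Tris buffer, 15 min compound preincubation.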
Starred values were filed as active, the others as inactive; u = inconclusive; [ ] = remark or other dose. On the % scale 0 is the no-effect control and ±100 the full control effect; potency means the concentration at half of the fitted maximal effect. Not all compounds are listed (hit frequency here may not be typical).

Start of the listing, in advance:
SMILES | HSD17B inh
Oc1ccc(CNc2ccccc2F)c2cccnc12 | -2.1%
CC(=O)c1ccc(C2C=CC(Oc3ccc(F)cc3C)C(CO)O2)cc1 (stereo not drawn) | -3.5%[11.4 µM]
CCCCC(=O)Nc1cc(N(C)C)nc2ccccc12 | 31.6µM*
CCOC(=O)CN1CC23C=CC(O2)C(C(=O)NCc2ccc(F)cc2)C3C1=O (stereo not drawn) | 6.2%
CCOc1cc2[nH]c(=O)n(CCCCC(=O)N3CCCCCC3)c(=O)c2cc1OCC | u
COc1ccccc1OCC(O)Cn1nc(C)cc1C (stereo not drawn) | 6.1%

The list itself (from the top)
SMILES | HSD17B inh
Oc1ccc(CNc2ccccc2F)c2cccnc12 | -2.1%
CC(=O)c1ccc(C2C=CC(Oc3ccc(F)cc3C)C(CO)O2)cc1 (stereo not drawn) | -3.5%[11.4 µM]
CCCCC(=O)Nc1cc(N(C)C)nc2ccccc12 | 31.6µM*
CCOC(=O)CN1CC23C=CC(O2)C(C(=O)NCc2ccc(F)cc2)C3C1=O (stereo not drawn) | 6.2%
CCOc1cc2[nH]c(=O)n(CCCCC(=O)N3CCCCCC3)c(=O)c2cc1OCC | u
COc1ccccc1OCC(O)Cn1nc(C)cc1C (stereo not drawn) | 6.1%
N#CCCn1ncn(-c2ccccc2)c1=S | 8.7%
COc1ccc(-c2cc(C(F)(F)F)nc(SCCC(=O)Nc3cc(C)on3)n2)cc1 | u
COC(=O)c1sc(NC(=O)c2cc3c(s2)CCCC3)nc1C | -8.6%
O=C(Nc1cccc(F)c1)N1CCCC2(CCN(S(=O)(=O)c3ccccc3)CC2)C1 | 2.6%
CSc1nsc(SC)c1C(=O)NCCNS(=O)(=O)c1ccc(C)cc1 | u
COCCCn1c(SCC(=O)Nc2cccc(C)n2)nnc1-c1ccco1 | 3.6%
Cn1c2c(c(=O)n(C)c1=O)CN(Cc1ccc3c(c1)OCO3)CN2 | 3.4%
COC(=O)[C@@]1(Cc2ccc(OC)cc2)[C@@H]2C(=CC(=O)[C@H]2CC(=O)C(=O)N2CCCC2)CN1C(=O)c1ccccc1 | -5.2%
CCc1sc(C(=O)NCc2cc(C)n(C)n2)cc1Br | -3.5%
CCCCOC(=O)CSc1nnc(-c2ccc(Cl)cc2Cl)o1 | -8.5%
O=C(NCc1ccc(F)cc1)C1CC(=O)N(CCc2ccccc2)C1 (stereo not drawn) | 8.9%
c1ccc(Nc2ncnc3ccc(-c4cccnc4)cc23)cc1 | -6.4%
CCOC(=O)CC(=O)CSc1nc2ccc(C)cc2cc1C#N | u
O=C1CCC2CCCCC2(O)O1 (stereo not drawn) | 4.5%
COc1ncc2nc(-c3ccc(F)cc3)c(=O)n(Cc3ccc(F)cc3)c2n1 | 20µM*
COC(=O)N1CCC2(CCN(Cc3ccc(C#N)cc3)CC2)CC1 | 12.2%
O=c1[nH]c(SCc2cc(=O)n3ccccc3n2)nc2c1CCC2 | 2.1%
CCCn1c(C)nc2c(NC3CCCCC3)nc(C)nc21 | 4.1%
CCOC(=O)c1cnn2c(C(F)F)cc(C3CC3)nc12 | u

Other results follow.
SMILES | HSD17B inh
CCOc1ccccc1OCC(=O)O | 0.2%
CCN(CC)C(=O)N1CCC(NC(=O)c2ccc(C(C)(C)C)cc2)CC1 | 14.5%
CC(NC(=O)c1ccc(Cl)cc1)C(=O)NC1=NCCS1 (stereo not drawn) | 2.4%
CCn1c(SCC(=O)Nc2cc(C)on2)nc2sc3c(c2c1=O)CCCC3 | u
Nc1c(OCC(=O)O)ccc2cc(S(=O)(=O)O)ccc12 | -7.7%[11.4 µM]
CCOC(=O)c1c(C)oc2c1c(C(c1ccncc1)N1CCOCC1)c(O)c1ccccc12 (stereo not drawn) | -16.1%
Cn1cc(Br)c(C(=O)NC2CCCCC2)n1 | 1.1%
CC(C)(C)c1ccc(-c2nnc(SCc3ccc(Cl)cc3)n2-c2cccc(C(F)(F)F)c2)cc1 | 4.5%[11.4 µM]
CN(C)c1ccc(NC(=O)CN2CCC(C(=O)c3ccc(F)cc3)CC2)cc1 | -0.6%
Cc1ccc(S(=O)(=O)N2CCN(C(=O)CN3CCc4ccccc4C3)CC2)cc1 | -8.2%
CN(C)C(=O)c1ccc(-c2cncnc2Nc2ccc(F)cc2)cc1 | 0.5%
Cc1ccc(-n2[nH]c(C)c(/C=N/c3ccccn3)c2=O)cc1 | 1.8%
O=C(NCC(c1cccnc1)N1CCN(c2ccccc2F)CC1)OCc1ccccc1 (stereo not drawn) | 6.5%
O=C(CSc1nnc(Cc2cc(=O)[nH]c(=O)[nH]2)n1-c1ccccc1)N1CCCC1 | 10.2%
Cc1ccc2oc(=O)c3c4cc(O)c(O)cc4oc3c2c1 | -19.5%
O=C(c1ccco1)N1CCN(S(=O)(=O)c2ccc3c(c2)CCN3C(=O)C2CC2)CC1 | 4.5%
COc1cc(C(=O)OCC(=O)c2c[nH]c3ccccc23)ccc1OCC(=O)N1CCOCC1 | 2.3%
Cc1csc(NC(=O)c2ccccc2O)n1 | 25.1µM*
CC1CCCCN1CC(=O)NCc1ccc2c(c1)OCO2 (stereo not drawn) | 7.9%
O=C(NCCN1CCOCC1)Nc1ccc(Cl)cc1Cl | 7.9%
C=COCCNC(=O)Nc1ccc(Cl)cc1Cl | -11.0%
Cc1ccccc1Br | 0.4%
COc1ccc(C2CC(c3ccc(OC)cc3)n3nc(NC(=O)c4ccco4)nc3N2)cc1 (stereo not drawn) | -13.5%
N#Cc1cccc(NC(=O)N2CCC3(CC2)CCN(C(=O)c2ccco2)CC3)c1 | 11.8%
O=C(Nc1ccccc1C(=O)OC1CCOC1=O)c1ccco1 (stereo not drawn) | 2.5%

Other results follow.
SMILES | HSD17B inh
CCOc1ccc(NC(=O)Cn2nnc(-c3ccccc3NC(=O)C3CC3)n2)cc1 | -3.0%
CCCOc1ccccc1C1NC(=O)NC(C)=C1C(=O)OCCOC(C)C (stereo not drawn) | 11.2%
CCOC(=O)c1ccc(NC(=O)CCC(=O)OC)cc1 | 1.0%
Cn1c(N)c(C(=O)COC(=O)c2cc(-c3ccco3)nc3ccccc23)c(=O)n(C)c1=O | 3.98µM*
COC(=O)c1ccc(C(/C=C/[C@@H](C)C(=O)N(C)Cc2ccccc2)NC(=O)OCc2ccccc2)cc1 (stereo partly drawn) | 2.1%
O=C(CN1CCCN(Cc2ccc(F)cc2Cl)C1=O)NCc1ccccc1 | 7.6%
Cc1cccc(OCc2nnc(SCC(=O)Nc3cc(C)on3)n2C)c1 | -3.2%
Cc1ccc(S(=O)(=O)N2CCOCC2)cc1C(=O)O | 8.7%
CSc1nsc(SCC(=O)N2CCN(c3ccccc3)CC2)n1 | 5.6%
COc1ccc(Oc2ncc3nc(-c4ccccc4)c(=O)n(C[C@H]4CCCO4)c3n2)cc1 | -15.1%
Cc1cc(C)c(C)c(S(=O)(=O)NCc2cccnc2)c1C | 9.0%
Cc1cc2oc(=O)cc(Cn3ccnc3)c2cc1C | u
C[C@H]1C2=C3C(CC[C@H]4C(OCc5ccc(F)cc5C(F)(F)F)OC[C@](C)([C@@H]34)N(C(=O)OC(C)(C)C)C2)C(CO)C1CO (stereo partly drawn) | -22.8%
COc1ccc(CC(=O)NC(C)c2nnc(SCc3nc4ccccc4c(=O)[nH]3)n2C)cc1 (stereo not drawn) | -0.8%
CCOC(=O)N/N=C1/C[C@@H](O)[C@@H](O)[C@@H]2[C@@H]3C(=O)N(CC)C(=O)[C@H]3CC[C@@H]12 | 3.1%[11.4 µM]
S=c1[nH]nc(C2COc3ccccc3O2)o1 (stereo not drawn) | -11.2%
O=S(=O)(c1ccc2c(c1)OCCO2)N1CCC(c2nc3ccc(Cl)cc3[nH]2)CC1 | 2.8%
O=C(NC1CC2CCCC(C1)N2CC(=O)N1CCCc2ccccc21)C1CCCCC1 (stereo not drawn) | 2.3%
NS(=O)(=O)c1cc2c(cc1Cl)N[C@H](Cc1ccccc1)NS2(=O)=O | 1.8%[11.4 µM]
COc1ccc(C(C)=O)cc1COC(=O)c1ccc2c(c1)OCO2 | -1.3%
O=C(COC(=O)c1ccc(Br)o1)Nc1nc2ccccc2s1 | -1.0%
Cc1ccc2cc(CN(C(=O)c3cccnc3)C(C)C)c(=O)[nH]c2c1 | -0.6%
CC(C)Oc1ccccc1C1CC(=O)Nc2cc3c(cc21)OCO3 (stereo not drawn) | 1.5%
CC12C(=O)N(c3nccs3)C(=O)C1C1C=CC2C1 (stereo not drawn) | 6.2%
CC(C)(C)n1ncc2c(=O)n(CC(=O)NCc3ccc(F)cc3)cnc21 | 0.3%

Additional structures:
SMILES | HSD17B inh
Cc1ccccc1C(=O)N1CCN(c2ccc(NC(=O)c3ccco3)cc2Cl)CC1 | u
C=CCNC(=O)NC(=O)COC(=O)CCCSc1nc2ccccc2[nH]1 | 6.5%
CC(=O)Oc1ccccc1C(=O)Nc1ncc([N+](=O)[O-])s1 | -2.7%
CCOc1ccc2[nH]c(=O)c(C(c3nnnn3Cc3ccco3)N3CCCC(C)C3)cc2c1 (stereo not drawn) | 25.1µM*
Cn1nc(C(=O)NCc2cccnc2)c2ccccc2c1=O | 4.7%
O=C(c1ccco1)N1CCN(C(=O)C2CC(c3ccc(Cl)c(Cl)c3)=NO2)CC1 (stereo not drawn) | -2.7%
COc1nc(-c2ccc(C)cc2)ccc1-c1noc(-c2cccnc2)n1 | u
O=C(NC1CCCC1)C(c1ccccc1F)N(C(=O)c1ccco1)C1CCCC1 (stereo not drawn) | 7.6%
COc1ccc(C2c3c(oc4ccccc4c3=O)C(=O)N2Cc2ccncc2)cc1OC (stereo not drawn) | 8.8%
Cc1ccc(CN2C(=O)CCC2C(=O)NCc2ccc3c(c2)OCO3)cc1 (stereo not drawn) | -7.8%
COc1cccc2c(=O)n(CC(=O)N3CCN(c4ccccc4)CC3)ccc12 | 13.2%
C=CCN1C(=O)C(CC(=O)NCC)SC1=Nc1ccc(S(N)(=O)=O)cc1 (stereo not drawn) | 12.5%
Cn1cnc(S(=O)(=O)Nc2ccc(C(F)(F)F)cc2)c1 | -6.0%
O=C(COC(=O)c1ccc(Br)o1)Nc1ccc(S(=O)(=O)N2CCCC2)cc1 | 3.9%
CCN1CCc2c(sc(NC(=O)c3ccc(S(=O)(=O)N4CCOCC4)cc3)c2C(N)=O)C1 | -13.6%
COC(=O)[C@H]1C[C@H]2CC[C@H](O)C[C@H]2N1Cc1c(F)cccc1Cl | -11.4%
COC(=O)Nc1cc(C(F)(F)F)ccc1N1CCN(c2ccccc2)CC1 | -18.8%
O=C(O)CCC(=O)Nc1ccccc1N1CCOCC1 | 7.2%
CCN(CC)S(=O)(=O)c1cccc(-c2nnc(SCCOc3ccc(Cl)cc3)o2)c1 | -12.0%
CN1CCN(S(=O)(=O)c2ccc(NC(=O)c3ccc(Br)s3)cc2)CC1 | -1.9%
COC(=O)C1=C(C)NC(=O)NC1c1cn(-c2ccccc2)nc1-c1cccs1 (stereo not drawn) | u
Cc1ccc2c(c1)NCC(C(=O)NC1CCC(C)CC1)O2 (stereo not drawn) | -0.1%
Cc1ccc(Nc2nc(C(=O)N3CCC(C(=O)N4CCN(C)CC4)CC3)cs2)cc1 | 3.7%
O=C1c2oc3ccc(Cl)cc3c(=O)c2C(c2cccnc2)N1Cc1ccco1 (stereo not drawn) | -16.3%
O=C(NCc1cccnc1)NC1CCCN1S(=O)(=O)c1ccc(Cl)cc1 (stereo not drawn) | 9.8%

Some of these compounds in order of SMILES length, rising.
SMILES | HSD17B inh
Cn1cnc(S(=O)(=O)Nc2ccc(C(F)(F)F)cc2)c1 | -6.0%
O=C(NCc1cccnc1)NC1CCCN1S(=O)(=O)c1ccc(Cl)cc1 (stereo not drawn) | 9.8%
C=CCN1C(=O)C(CC(=O)NCC)SC1=Nc1ccc(S(N)(=O)=O)cc1 (stereo not drawn) | 12.5%

New compounds follow.
SMILES | HSD17B inh
COc1ccc(C)cc1-n1nnnc1SCC(=O)c1ccc2c(c1)OCCO2 | -2.3%
C/C=C/Cn1c(Br)nc2c1c(=O)[nH]c(=O)n2C | 10.3%
Cc1cc(C)nc(N2CCCC(C(=O)Nc3ccc4c(c3)OCCO4)C2)n1 (stereo not drawn) | -4.8%
O=S(=O)(c1ccc(Oc2ccc(S(=O)(=O)N3CCOCC3)cc2)cc1)N1CCOCC1 | 7.8%
NC(=O)c1ccsc1NC(=O)CSc1nc2ccccc2c(=O)n1CCCO | -14.9%
CC(=O)Nc1ccc(CN2CCCCCCC2)cc1 | -3.6%
Cc1cc(C(F)(F)F)c(C#N)c(SCC(=O)NC(C)(C)C)n1 | -6.0%
CCCCCOC(=O)Cn1c(N2CCOCC2)nc2c1c(=O)[nH]c(=O)n2C | -1.3%
COCC(=O)Nc1nc(-c2ccccc2)ns1 | 8.3%
CCn1c(CSc2nnc(-c3ccoc3C)n2C)nc2cc(S(=O)(=O)N(C)C)ccc21 | 8.7%
CCOC(=O)c1sc(=NC(=O)c2cc(OC)c(OC)c(OC)c2)n(C)c1C | 15.8µM*
Fc1ccc2[nH]c3c(N4CCN(c5ccccc5)CC4)ncnc3c2c1 | u
CCC1Oc2ccc(C)cc2N(CC(=O)NCCC2=CCCCC2)C1=O (stereo not drawn) | 5.5%

Taken from above.
HSD17B inh result of C/C=C/Cn1c(Br)nc2c1c(=O)[nH]c(=O)n2C is entered as 10.3%
HSD17B inh result of COc1ccc(C)cc1-n1nnnc1SCC(=O)c1ccc2c(c1)OCCO2 is entered as -2.3%
HSD17B inh result of CCCCCOC(=O)Cn1c(N2CCOCC2)nc2c1c(=O)[nH]c(=O)n2C is entered as -1.3%
HSD17B inh result of NC(=O)c1ccsc1NC(=O)CSc1nc2ccccc2c(=O)n1CCCO is entered as -14.9%
HSD17B inh result of CC(=O)Nc1ccc(CN2CCCCCCC2)cc1 is entered as -3.6%
